# Sa ugtP lethal: kills S. aureus RN4220 lacking UgtP; S. aureus RN4220 ugtP deletion, OD600 growth, 16 h; some inactives read as strong as hits; growth inhibition, % (no concentration beside the values); 0.54% of 330,000 active; AID 1259309;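 active = z-score under -3 and OD600 up to 0.15 on both plates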;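 note: plate controls were untreated wells for no effect and antibiotic for full effect; wells of about 80 µL received 100 nL stock; the first replicate is given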
# Autofluor counter: flagged as autofluorescent in microsphere protease counterscreen | compound autofluorescence counterscreen, microsphere flow cytometry; hits give high values | fluorescence intensity (no concentration beside the values) | 3.1% of 360,000 active;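 active = at least 3 SD above the mean of all compounds, about 16000 in these data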;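 note: 100 nL of 1 mM stock went into each well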
# PrP UTR inh: inhibition of PrP 5' UTR reporter expression; cell-based PrP 5' UTR mRNA reporter, plate reader; AID 488862; 0.35% of 340,000 active; inhibition, % (no concentration beside the values);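 active = every replicate at 50% or more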;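 note: 0 = median of the neutral control wells; tested in H4 reporter cells; numbers are from one replicate; inactives centre near -14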
# Sa RN4220 lethal: kills Staphylococcus aureus RN4220; S. aureus RN4220 growth, OD600, 16 h; inhibition, % (test concentration not listed); 0.33% of 330,000 active; AID 1259311;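 active = z-score of -3 or lower and OD600 up to 0.18 on both plates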;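 note: plate controls were untreated cells for no effect and reference antibiotic for full effect; stock transfer was 100 nL into about 80 µL; one replicate is shown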
# BJeLR lethal: kills HRASV12-expressing BJeLR cells | BJeLR (HRASV12) viability, CellTiter-Glo ATP luminescence, 48 h; reference of the scale not given here | inhibition, % (no concentration beside the values) | 0.17% of 300,000 active | AID 1554;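 active = replicate mean above 50%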;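 note: 50 nL library stock added to about 25 µL; numbers are from one replicate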
# Mtb hypoxia rep: Mtb hypoxia fluorescent reporter inhibition. AID 1159583. M. tuberculosis hypoxia-regulated fluorescent reporter, fluorescence. 0.1% of 300,000 active. fluorescence inhibition, % (no concentration beside the values);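 active = 35 to 45% if threefold the growth effect, above 45% if 1.5-fold the growth effect; inactive = the rest, general growth blockers included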;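 note: wells of about 50 µL received 100 nL stock; 0% = vehicle wells and 100% = reference inhibitor wells; whole bacteria with a GFP reporter of the hypoxia response; strong numbers were not always called active; many hits fall short of the cut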
# Mtb hypoxia rep growth: second read-out of Mtb hypoxia rep, no call of its own (marks repeat the call); growth inhibition, %; measured here: M. tuberculosis growth (absorbance);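 0% = vehicle and 100% = reference antibiotic; read after six days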
# An asterisk follows results filed as active; x = not tested or not shown.
SMILES,Sa ugtP lethal,Autofluor counter,PrP UTR inh,Sa RN4220 lethal,BJeLR lethal,Mtb hypoxia rep,Mtb hypoxia rep growth
CCC(=O)N1CCc2cc(Br)cc(S(=O)(=O)CC(=O)OC)c21,-2,2654,-26,1.8,-8,x,x
Cc1ccc(CN2CCN(N=Cc3ccc(C)s3)CC2)cc1,20,x,x,-1.6,x,-3,-1
Cc1ccc(C=NNC(=O)c2cccc(S(=O)(=O)N3CCOCC3)c2)o1,0,x,x,2.1,x,10,3
CCOC(=O)COc1ccc2c(=O)cc(-c3ccccc3)oc2c1,-12,x,x,3.9,-5,17,30
NC(=O)NC(=O)COC(=O)CC12CC3CC(CC(C3)C1)C2,1,3152,13,0.9,-12,8,-2
N#Cc1cn(-c2ccccc2)nc1-c1cc2ccccc2oc1=O,-7,4569,-13,4.6,4,x,x
O=C(OCC(=O)N1CCCCC1)c1c[nH]c2ccccc12,7,3538,-30,6.0,x,13,-6
O=C(Cc1ccccc1)NCC(=O)OCc1ccc([N+](=O)[O-])cc1,5,2007,-13,3.1,-11,-9,3
COC(=O)C1=C(C)NC(C)=C(C(=O)OC)C1c1ccc(-c2cccc(Cl)c2Cl)o1,1,8095,-20,-2.5,6,-5,-11
Cc1cccc(NC(=O)c2nc[nH]c2C(=O)NC(CC(C)C)C(=O)OCc2ccccc2)c1 (stereo unspecified),-3,x,x,-6.9,x,15,13
CC1CCC(NC(=O)CN2CCC(n3nnc4cc(F)ccc43)CC2)CC1 (stereo unspecified),8,6608,-13,6.8,-11,1,6
COCCNC(=O)C(c1cccnc1)N(Cc1ccccc1)C(=O)Cn1nnc2ccccc21 (stereo unspecified),-15,4304,-7,-0.7,-13,3,12
COc1ccc(Br)cc1C(=O)NC(=S)Nc1ccc(CN2CCOCC2)cc1,-1,4806,1,19,-3,-5,-2
CC(C)Oc1ccc(CNC(=O)Cn2ccc3cc(S(=O)(=O)N4CCCC4)ccc32)cc1,4,5493,-21,3.8,-2,10,1
Cc1[nH]c2ccc(F)cc2c1CCN(Cc1cccnc1)C(=S)Nc1ccc(F)cc1,-24,4201,-14,2.3,12,7,5
COc1ccc(C(=O)c2ccc([N+](=O)[O-])cc2Cl)cc1,4,4641,9,26,5,8,9
CNC(=S)NN=Cc1cccc(OCc2ccccc2F)c1,-3,x,x,12,x,12,3
Oc1ccc2ccccc2c1CN1CC=C(c2ccccc2)CC1,2,4863,-38,3.0,0,9,4
CN(C)c1ccc(C=NNC(=O)c2ccc(Cn3cc(Cl)cn3)cc2)cc1,8,x,x,-1.5,x,2,0
c1ccc(C2=NOC(c3nnc(-c4ccccc4)o3)C2)cc1 (stereo unspecified),1,3720,-13,5.6,6,8,4

# Two of the compounds above, with tabs:
canonical_smiles	Sa ugtP lethal	Autofluor counter	PrP UTR inh	Sa RN4220 lethal	BJeLR lethal	Mtb hypoxia rep	Mtb hypoxia rep growth
COc1ccc(C(=O)c2ccc([N+](=O)[O-])cc2Cl)cc1	4	4641	9	26	5	8	9
CNC(=S)NN=Cc1cccc(OCc2ccccc2F)c1	-3	x	x	12	x	12	3

# (further entries)
SMILES,Sa ugtP lethal,Autofluor counter,PrP UTR inh,Sa RN4220 lethal,BJeLR lethal,Mtb hypoxia rep,Mtb hypoxia rep growth
CCCCN(CCCC)CC(O)COc1ccccc1Br (stereo unspecified),-4,2157,-24,-2.4,0,-4,6
Cc1cc(C)n2nc(S(=O)(=O)N(CC(C)C)CC(C)C)nc2n1,5,5107,-18,-1.0,-4,x,x
COc1ccccc1CNC(=O)c1ccccc1C(=O)NC(C)(C)C(=O)NCc1ccccc1OC,-5,6188,-2,-0.4,7,-10,-1
CC(=O)Nc1ccc(NC(=O)C2CCC(CNS(=O)(=O)c3cccc4nsnc34)CC2)cc1 (stereo unspecified),0,4374,-8,6.5,-3,-4,-12
C[C@H](NC(=O)c1nc[nH]c1C(=O)OCc1ccccc1)c1ccccc1,-9,3662,-15,-7.6,x,12,6
CCOC(=O)C1=C(N)OC2=C(C(=O)CC(C)(C)C2)C1c1cc(CSc2nnnn2C)cs1 (stereo unspecified),-5,3851,-4,-2.3,7,-7,-10
CCCCCCC(C)n1[nH]c(=O)cc1N (stereo unspecified),4,4864,-14,2.8,4,-13,0
Cc1cccc(NC(=O)c2nc[nH]c2C(=O)NC(Cc2ccccc2)C(=O)OC(C)(C)C)c1 (stereo unspecified),-5,x,x,-5.1,x,13,9
O=C(CSc1nc2ccccc2o1)N1N=C(c2cccs2)CC1c1ccc(F)cc1 (stereo unspecified),-6,2167,-9,-2.1,2,-1,8
COc1ccc(C(=O)C2CCCN(C/C=C/c3ccccc3OC)C2)c(OC)c1 (stereo unspecified),-2,2324,-5,4.5,3,6,-1
CCOC1OC(C(=O)O)=CC(C2CC2)C1CCCO (stereo unspecified),-1,x,x,0.6,x,-6,2
CC(=O)c1ccc(NC(=O)C2C3C=CC(C3=C(c3ccccc3)c3ccccc3)C2C(=O)O)cc1 (stereo unspecified),9,3168,-102,5.1,4,6,6
COc1ccc(C(CC(=O)O)NC(=O)Nc2ccccc2)cc1OC (stereo unspecified),6,5008,-23,4.7,2,22,2
CC1(c2cccc(Br)c2)NC(=O)N(CC(=O)N2CCc3ccccc32)C1=O (stereo unspecified),-5,2937,4,2.0,x,21,-2
COc1ccccc1C(=O)Nc1ccc2c(c1)CCCN2C(=O)c1cccs1,x,5740,-15,x,19,x,x
Cc1cccc(N=C2NC(=O)/C(=C\c3cccs3)S2)c1,-22,2203,-38,-9.1,16,5,11
COc1cccc(C(C)=NNS(=O)(=O)c2ccc(Cl)cc2)c1,-8,x,x,4.6,x,-5,7
c1ccc2c(c1)Cc1ccccc1O2,-4,4330,-8,3.8,x,-6,2
O=c1c2ccccc2nc(-c2ccco2)n1-c1nccs1,4,4143,1,2.5,-3,x,x
O=C(NCc1ccccn1)Nc1cc(Cl)ccc1Cl,-1,5129,-29,4.0,-1,6,0
O=C(Nc1cccc(NC(=O)c2ccc([N+](=O)[O-])o2)c1)c1ccco1,44,4062,-23,39,14,22,33
O=C(NN=Cc1cccnc1)C1CCCCC1,3,x,x,14,x,15,18
CC(=O)Nc1ccc(-c2nnc(SCc3c(C)cc(C)cc3C)n2C)cc1,4,23890*,-14,16,-5,0,16
CC(C)(C)NC(=O)[C@H]1CC[C@H]2[C@@H]3CC[C@H]4NC(=O)C=C[C@]4(C)[C@H]3CC[C@]12C,x,6619,-5,x,1,x,x
COc1ccc(N(Cc2ccccc2)C(=O)CSc2nnc(Cn3nnc4ccccc43)o2)cc1,15,3504,-3,0.3,6,x,x
CC(C)c1c(C(=O)NN=Cc2ccoc2)nnn1-c1nonc1N,-3,x,x,-2.1,x,-13,2
CC1(C)Cc2nc3oc4c(NCc5ccccc5)ncnc4c3cc2CO1,12,3539,9,2.0,-13,6,6
CC1(C)CC(=O)C2=C(C1)NC(=O)NC2c1ccc(Cl)cc1 (stereo unspecified),3,3499,-31,2.4,-2,-8,0
Cc1c(C(=O)N2CCCCC2)oc2ccc(Br)cc12,-3,6433,-43,3.8,0,-1,10
CCOC(=O)c1sc(NC(=O)Nc2ccccc2)cc1C,-20,2400,-70,0.5,0,-1,4
CCOC(=O)C1=C(C)NC(=O)NC1c1ccc(-c2ccc(Cl)cc2)o1 (stereo unspecified),-10,3603,-45,-4.9,-5,11,2
COCc1c(C(=O)N/N=C(\C)c2ccc(Cl)s2)nnn1-c1nonc1N,x,5723,-11,x,-2,x,x
Cc1ccccc1OCc1nnc(SCC(=O)Nc2ccc3c(c2)oc2ccccc23)n1C,-1,10804,-11,-2.0,4,4,0
O=C(Nc1ccc(F)cc1)Nc1cccc(Br)c1,10,3227,x,35,1,3,3
Cc1[nH]c2ccccc2c1C=NNC(=O)c1cccc(F)c1,-3,x,x,3.2,x,2,5
Cc1cc(C)c(C#N)c(N)n1,6,3025,-11,2.3,6,5,17
CCC(=O)Nc1nc(-c2ccc3c(c2)CC(C)N3S(C)(=O)=O)cs1 (stereo unspecified),-2,3003,-35,5.1,1,14,6
c1cc(CNc2ccc(N3CCOCC3)cc2)ccn1,-13,1843,-17,1.1,-3,x,x
COc1ccccc1CC(=O)Nc1cccc2ccccc12,9,3636,-16,8.9,1,10,11
CCn1c2ccccc2c2cc(NC(=O)c3cccc([N+](=O)[O-])c3)ccc21,2,4625,-35,5.8,10,4,4

# A second format for some results above.
# Values run as follows: Sa ugtP lethal, Autofluor counter, PrP UTR inh, Sa RN4220 lethal, BJeLR lethal, Mtb hypoxia rep, Mtb hypoxia rep growth
- COCc1c(C(=O)N/N=C(\C)c2ccc(Cl)s2)nnn1-c1nonc1N
→ x, 5723, -11, x, -2, x, x
- Cc1ccccc1OCc1nnc(SCC(=O)Nc2ccc3c(c2)oc2ccccc23)n1C
→ -1, 10804, -11, -2.0, 4, 4, 0
- O=C(Nc1ccc(F)cc1)Nc1cccc(Br)c1
→ 10, 3227, x, 35, 1, 3, 3
- Cc1[nH]c2ccccc2c1C=NNC(=O)c1cccc(F)c1
→ -3, x, x, 3.2, x, 2, 5
- Cc1cc(C)c(C#N)c(N)n1
→ 6, 3025, -11, 2.3, 6, 5, 17

# Later entries:
SMILES,Sa ugtP lethal,Autofluor counter,PrP UTR inh,Sa RN4220 lethal,BJeLR lethal,Mtb hypoxia rep,Mtb hypoxia rep growth
Cn1c(=O)c(=O)n(C)c2cc(S(=O)(=O)N3CCCC3C(=O)Nc3ccccc3F)ccc21 (stereo unspecified),1,6071,9,-1.7,-9,x,x
CSc1ccc(CN2CCN(CCC(C)C)C(CCO)C2)cc1 (stereo unspecified),-8,4490,-10,1.0,3,12,4
Cc1cc(C)c(CN2CCC(n3nccc3NC(=O)C3CCOC3)CC2)cc1C (stereo unspecified),8,5614,-13,-0.7,-8,3,9
CCOc1ccc(-c2noc(CCC(=O)NCCc3ccccc3)n2)cc1OC,5,3890,-14,2.4,-3,14,4
COc1ccc2nc(NC(=O)CCN3C(=S)NC(C)(C)CC3C)sc2c1 (stereo unspecified),0,9704,-26,7.0,7,6,2
COc1cc(/C=C(\NC(=O)c2ccccc2)C(=O)Nc2cccc(O)c2)c([N+](=O)[O-])cc1OC,x,2986,-12,x,3,x,x
CN1CCN(c2nc(C(N)=O)cc(-c3ccccc3)n2)CC1,0,4065,-17,-0.1,-7,x,x
CCc1ccc(OCC(=O)Oc2ccc([N+](=O)[O-])cc2)cc1,3,3109,5,-0.6,-8,-3,-5
COc1ccc(CNC(=O)C(=O)NC2CC(C)(C)NC(C)(C)C2)cc1,4,4703,-27,1.1,1,9,7
Cc1sc(N/N=C/c2ccco2)nc1-c1ccccc1,x,2463,-55,x,-3,x,x
CCCN(CCC)c1ccc(/C=C/c2ccc3cc(OCC)ccc3n2)cc1,-5,4855,-36,-4.4,3,-7,5
Cc1ccc(C)c2c(N)c3c(nc12)CCCCC3 (tested in a mixture with another compound),3,3264,-16,0.2,-4,1,7
CCOC(=O)C1=NOC(COc2ccccc2C=O)C1 (stereo unspecified),3,3885,-13,1.8,3,8,-2
Cc1cccc(-n2c(=O)c3c(C)c(C)sc3n(CC(N)=O)c2=O)c1,-7,4429,-13,3.9,2,-6,-4
COc1ccc(C2CC(=O)C=C(c3cc(F)ccc3OC)C2)cc1 (stereo unspecified),6,x,x,5.0,x,15,7
CCOc1cc(C=Nn2cnnc2)ccc1OS(=O)(=O)c1ccc(C)cc1,-8,x,x,8.7,x,-4,-2
COc1ccc(C(=O)NCCS(=O)(=O)N(C)C2CCCCC2)cc1,x,5634,-6,x,8,x,x
O=C(NCC1CCC(C(=O)O)CC1)c1cccnc1 (stereo unspecified),1,7967,4,0.7,-1,8,7
CCN1C(=O)[C@H]2[C@H]3CN=C(SCc4ccc(C)cc4)N3[C@@](Cc3ccccc3)(C(=O)OC)[C@H]2C1=O,-2,2971,-21,5.4,x,-3,2
Cc1ccc(-c2nnc(NC(=O)c3c(F)cccc3Cl)s2)cc1,3,4677,-17,-6.3,-6,5,3
O=C(O)CNC(=O)c1ccc(NC(=O)/C(=C/c2ccccc2)NC(=O)c2ccccc2)cc1,2,3219,-7,0.8,-20,0,-2
COC(=O)[C@]1(C)N[C@H](CN(C)C(=O)C2CCCCC2)[C@@H]2C(=O)N(C)C(=O)[C@@H]21,0,2992,-3,-0.3,x,-13,-19
CCc1ccc2oc(-c3cccc(N)c3)nc2c1,1,3708,-15,11,7,0,4
CCOC(=O)c1c(C)[nH]c(C(=O)N(C)CC(=O)Nc2ccc(OC)cc2)c1C,0,x,x,4.9,x,16,10
CCOC(=O)/C=c1\s/c(=C(\C#N)C(=O)OCC)n(-c2ccccc2)c1=O,x,4101,-7,x,2,x,x

# Compound activity from PubChem BioAssay.
